Screening results (PubChem BioAssay)
Fam108B counter: mouse Fam108B serine hydrolase inhibitors, primary screen, counter-screen for RBBP9 inhibitor project, biochemical, fluorescence polarization; recombinant Fam108B, FP-Rh probe fluorescence polarization; inhibition, % at 9.51 µM; 300,000 tested, 0.33% active; AID 1947, 2009;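 active means inhibition above the screen mean inhibition plus 3 SD, computed separately per campaign, cut at about 18% in these data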;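 further: inhibitors lower polarization as less probe binds the enzyme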
GLD-1 RNA inh: GLD-1/TGE RNA complex disruptors, primary screen, biochemical, fluorescence polarization; Female germline-specific tumor suppressor gld-1 (Caenorhabditis elegans), Q17339; purified GLD-1 + fluorescein TGE RNA; inhibition, % at 5.96 µM; 320,000 tested, 0.44% active; AID 2280, 2010;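 active means percent inhibition above a per-plate cutoff, the plate mean of test compounds plus 3 SD, cut at about 30% in these data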;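 further: 0% = DMSO wells with GLD-1 and probe and 100% = wells lacking GLD-1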
Target sequence (Q17339 whole entry, looked up): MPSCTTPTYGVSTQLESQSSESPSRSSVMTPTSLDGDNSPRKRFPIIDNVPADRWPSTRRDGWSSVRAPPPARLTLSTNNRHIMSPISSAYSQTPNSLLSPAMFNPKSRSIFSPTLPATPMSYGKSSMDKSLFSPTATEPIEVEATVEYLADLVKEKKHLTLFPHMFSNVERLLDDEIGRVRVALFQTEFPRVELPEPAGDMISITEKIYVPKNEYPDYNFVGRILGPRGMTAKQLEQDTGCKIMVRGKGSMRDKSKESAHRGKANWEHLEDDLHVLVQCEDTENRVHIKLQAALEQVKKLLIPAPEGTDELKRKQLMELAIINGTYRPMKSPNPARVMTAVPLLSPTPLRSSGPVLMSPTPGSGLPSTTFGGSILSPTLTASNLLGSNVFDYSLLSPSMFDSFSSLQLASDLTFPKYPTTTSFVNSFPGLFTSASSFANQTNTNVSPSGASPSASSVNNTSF
VLA-4 inh: inhibition in human VLA-4 binding assay, primary screen, VLA-4 allosteric modulator project, MLPCN library, flow cytometry, VLA-4 expressing cells; 330,000 tested, 0.2% active; Integrin alpha-4 (Homo sapiens), P13612; AID 2557, 2010; inhibition, % (about 7 µM as worked out from the volumes in the protocol); ligand binding flow cytometry; in the data active means inhibition above about 50%
Efflux pump inh: inhibitors of Candida efflux pumps in yeast, primary screen, S. cerevisiae, Nile Red, multiplex; S. cerevisiae Candida pump triplex; inhibition, % at 10 µM; 330,000 tested, 0.44% active; AID 485275, 2010;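 active means plate passing quality check with inhibition over a set limit, or well fluorescence over plate mean plus 4 SD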;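 further: Nile Red retained in pooled yeast measured as flow cytometry median fluorescence; 0% = buffer negative control and 100% = Enniatin B positive control; higher means more Nile Red kept so more efflux inhibition; some compounds called inactive have numbers as strong as hits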
MEX-5 binding: MEX-5 zinc finger RNA-binding disruptors – biochemical, C. elegans, fluorescence polarization, MLPCN library, primary screen. MEX-5/FITC-TCR2 RNA binding; active compounds read low. 300,000 tested, 0.38% active. activity score (negative = inhibition of binding), % at 10 µM. AID 1832, 2009;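 active means inhibition past about -25% in most replicates, and total fluorescence under double the plate's negative control median, limit read from the data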;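 further: 0% = DMSO and -100% = 5 µM competing unlabeled TCR2 RNA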
Numbers without * were called inactive; & = joins results of further samples. A portion of the library (hit frequency here may not be typical).

How did CCC(COC(=O)c1cc(OC)c(OC)c(OC)c1)(c1ccccc1)N(C)C (centres undefined) do in these assays?
Fam108B counter: 4.4&-5.0&-0.2; GLD-1 RNA inh: -3.7&4.0&3.2; VLA-4 inh: -15.7&-0.8&35.0; Efflux pump inh: -0.1&0.1&0.0; MEX-5 binding: 3.8&-0.7

What do the screens show for `Oc1c(Br)c(Br)c(Br)c(Br)c1Br`?
GLD-1 RNA inh: 10.1; VLA-4 inh: 8.8; Efflux pump inh: 0.0

What do the screens show for `C[C@]12CCC3C(CC[C@@H]4CC(=O)CC[C@]34C)C1CC[C@@H]2O` (some centres undefined)?
GLD-1 RNA inh: 2.8; VLA-4 inh: -8.8; Efflux pump inh: 0.0

How did COc1cc2nc(N3CCN(C(=O)C4CCCO4)CC3)nc(N)c2cc1OC (centres undefined) do in these assays?
Fam108B counter: -1.3&-0.2; GLD-1 RNA inh: -5.7&6.1; VLA-4 inh: 0.2&41.4; Efflux pump inh: -0.1&0.0; MEX-5 binding: 2.8&-2.5

What do the screens show for `CN1CCN(Cc2ccc(Br)s2)CC1`?
Fam108B counter: 3.0; GLD-1 RNA inh: -0.8; VLA-4 inh: -0.3; Efflux pump inh: 0.0; MEX-5 binding: -2.0

Results for C[C@]12CCC3[C@@H](CC[C@@H]4C[C@H](O)CC[C@]34C)[C@@H]1CCC2=O (some centres undefined) ?
Fam108B counter: -2.1; GLD-1 RNA inh: 2.1; VLA-4 inh: 11.6; Efflux pump inh: 0.1

How did C1CCC2CCCCC2C1 (centres undefined) do in these assays?
GLD-1 RNA inh: 0.1; VLA-4 inh: 15.0; Efflux pump inh: 0.0

What do the screens show for `CN(C)N=O`?
GLD-1 RNA inh: -2.5; VLA-4 inh: -2.4; Efflux pump inh: 0.0

Results for c1ccc2c(c1)Nc1ccccc1S2 ?
Fam108B counter: -1.0; GLD-1 RNA inh: 2.7; VLA-4 inh: 54.9*; Efflux pump inh: 0.0; MEX-5 binding: 5.4

Results for Oc1cc(Cl)ccc1Oc1ccc(Cl)cc1Cl ?
Fam108B counter: -4.5; GLD-1 RNA inh: 3.7; VLA-4 inh: 19.5; Efflux pump inh: -0.3; MEX-5 binding: 1.6

A portion taken from the entries so far, as a working copy:
How did CCC(COC(=O)c1cc(OC)c(OC)c(OC)c1)(c1ccccc1)N(C)C (centres undefined) do in these assays?
Fam108B counter: 4.4&-5.0&-0.2; GLD-1 RNA inh: -3.7&4.0&3.2; VLA-4 inh: -15.7&-0.8&35.0; Efflux pump inh: -0.1&0.1&0.0; MEX-5 binding: 3.8&-0.7

What do the screens show for `Oc1c(Br)c(Br)c(Br)c(Br)c1Br`?
GLD-1 RNA inh: 10.1; VLA-4 inh: 8.8; Efflux pump inh: 0.0

What do the screens show for `C[C@]12CCC3C(CC[C@@H]4CC(=O)CC[C@]34C)C1CC[C@@H]2O` (some centres undefined)?
GLD-1 RNA inh: 2.8; VLA-4 inh: -8.8; Efflux pump inh: 0.0

How did COc1cc2nc(N3CCN(C(=O)C4CCCO4)CC3)nc(N)c2cc1OC (centres undefined) do in these assays?
Fam108B counter: -1.3&-0.2; GLD-1 RNA inh: -5.7&6.1; VLA-4 inh: 0.2&41.4; Efflux pump inh: -0.1&0.0; MEX-5 binding: 2.8&-2.5

What do the screens show for `CN1CCN(Cc2ccc(Br)s2)CC1`?
Fam108B counter: 3.0; GLD-1 RNA inh: -0.8; VLA-4 inh: -0.3; Efflux pump inh: 0.0; MEX-5 binding: -2.0

Results for C[C@]12CCC3[C@@H](CC[C@@H]4C[C@H](O)CC[C@]34C)[C@@H]1CCC2=O (some centres undefined) ?
Fam108B counter: -2.1; GLD-1 RNA inh: 2.1; VLA-4 inh: 11.6; Efflux pump inh: 0.1

How did C1CCC2CCCCC2C1 (centres undefined) do in these assays?
GLD-1 RNA inh: 0.1; VLA-4 inh: 15.0; Efflux pump inh: 0.0

What do the screens show for `CN(C)N=O`?
GLD-1 RNA inh: -2.5; VLA-4 inh: -2.4; Efflux pump inh: 0.0

Further results
What do the screens show for `COc1cc2nc(N3CCN(C(=O)[C@@H]4CCCO4)CC3)nc(N)c2cc1OC`?
Fam108B counter: -5.2; GLD-1 RNA inh: 0.7; VLA-4 inh: -6.6; Efflux pump inh: -0.1; MEX-5 binding: -2.7

How did COc1cccc(NC(=O)CN2CC(c3ccccc3)CC2=O)c1 (centres undefined) do in these assays?
Fam108B counter: -1.2; GLD-1 RNA inh: 4.0; VLA-4 inh: -1.6; Efflux pump inh: 0.0; MEX-5 binding: -1.6

Results for CN1CCN(Cc2cc(C(C)(C)C)c(O)c(C(C)(C)C)c2)CC1 ?
Fam108B counter: -0.5; GLD-1 RNA inh: 5.6; VLA-4 inh: -16.3; Efflux pump inh: 0.0

Results for C[C@]12CCC3C(CC[C@@H]4C[C@H](O)CC[C@]34C)C1CCC2=O (some centres undefined) ?
GLD-1 RNA inh: 3.5; VLA-4 inh: 8.1; Efflux pump inh: 0.0

Results for NC(=O)c1cn(C2OC(CO)C(O)C2O)c2ncnc(N)c12 (centres undefined) ?
Fam108B counter: -3.5; GLD-1 RNA inh: 7.4; VLA-4 inh: 12.7; Efflux pump inh: -0.2; MEX-5 binding: -4.8
